2A StopGo: FMDV 2A StopGo reporter, luciferase signal; 410,000 compounds, 1.2% hits; Potency, µM (top dose mostly 57.9 µM), for the others: at the top dose signal change, negative = less light; human cells with a luciferase reporter of 2A StopGo recoding; control for the full effect not named in the record; active = well fitted falling curve with a large enough effect; inconclusive = small, poorly fitted or top-dose-only effect; inactive = no such curve, though single readings can be large or run the other way; tested in HEK293T cells; note: % is set by controls: 0 for no effect and ±100 for the full control effect; nearly all actives have a fitted effect of over 45% in size; luciferase light after 4 h
RE007 growth inh: less growth of the S. pombe RE007 Vpr strain. S. pombe RE007 Vpr strain, BacTiter-Glo ATP luminescence, 24 h; control for the full effect not named in the record. Potency, µM (series often up to 92.2 µM), inactives show at the highest dose activity change, negative = less growth. 360,000 compounds, 0.21% hits. AID 651644; active = well fitted falling curve with a large enough effect; inconclusive = small, poorly fitted or top-dose-only effect; inactive = no such curve, though single readings can be large or run the other way;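 note: % is set by controls: 0 for no effect and ±100 for the full control effect; nearly all actives have a fitted effect of over 50% in size; the assay follows cell death caused by Vpr and the record does not say whether a fall means rescue or toxicity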
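Fission yeast RE007 carrying one integrated HIV-1 vpr copy, seeded at OD 0.01 in PMG+AL medium with 23 nL pinned compound. Grown 24 h at 30 degrees; viability read by BacTiter-Glo luminescence after 5 min.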
SARS PLpro yeast: inhibitors of SARS-CoV papain-like protease in yeast | S. cerevisiae expressing SARS-CoV PLpro, growth rescue; control for the full effect not named in the record | Potency, µM (titrated, usually from 32.9 µM), without a hit: at the highest dose activity, positive = growth rescue | 330,000 compounds, 0.19% hits; active means well fitted rising curve with a large enough effect; inconclusive means small, poorly fitted or top-dose-only effect; inactive means no such curve, though single readings can be large or run the other way; note: 0% is about no effect; nearly all actives have a fitted effect of over 55% in size; growth read by luminescence after 48 h
Active calls of the source: *; ? = inconclusive; & = joins results of further samples; [ ] = another dose, or the depositor's remark. Potency is the fitted concentration of half-maximal effect. Only part of the results is shown (hit frequency here may not be typical).

SMILES	2A StopGo	RE007 growth inh	SARS PLpro yeast
COC(=O)[C@]1(C)N[C@H](CN(C)C(=O)Nc2ccc(C)cc2)[C@@H]2C(=O)N(Cc3ccccc3)C(=O)[C@@H]21	-9%	19%	3%
COCCNC(=O)c1ccc2c(c1)S(=O)(=O)c1cc(Cl)ccc1C2=O	-9%	5%	-10%
O=C1CCC/C(=N/Nc2ccc(Cl)cc2)C1	8%	-12%	-1%
O=C(Nc1cccc(C(F)(F)F)c1)C1=CC=CN2CCS(=O)(=O)N=C12	20%	3%	8%
COc1cc(C(=O)OCC(=O)N(CC(C)C)C2CCS(=O)(=O)C2)cc(OC)c1C (stereo not drawn)	-15%	-23%	-2%
C[C@H](CO)N1C[C@H](C)[C@@H](CN(C)S(=O)(=O)c2ccccc2)Oc2c(NC(=O)NC3CCCCC3)cccc2C1=O	-19%	1%	6%
CCn1c(SCC(=O)N(C)C2CCCCC2)nc2cc(S(N)(=O)=O)ccc21	-14%	0%	4%
CC(C)(O[C@@H]1O[C@H](CO)[C@@H](O)[C@H](O)[C@H]1O)[C@@H]1CC=C(C(=O)O)CC1	-23%	-5%	-2%
Brc1ccc(CSc2nnc3ccccn23)cc1	26%	2%	1%
CC1CCCC(NC(=O)Cn2cc(C(F)(F)F)cc(Cl)c2=O)C1C (stereo not drawn)	-12%	-1%	10%
CCOc1ccc(C(=O)NCC(=O)N2CCN(c3ccc(C(F)(F)F)cn3)CC2)cc1	?	10%	-5%
O=C(NOCc1ccccc1)c1ccccc1	33%[activator]	-2%	6%&-3%
CC[C@]12c3[nH]c4cc(CCC(=O)N(C)C)ccc4c3CCN1C(=O)[C@@H](CC(=O)NCCCN(C)C)C[C@@H]2C(=O)N1CCN(C(=O)C2CC2)CC1	-6%	-3%	6%
O=C(Nc1ccc(F)cc1)c1ccc(C(=O)N2CCCC(O)C2)cc1 (stereo not drawn)	1%	10%	8%
COc1cc(/C=C/c2ccc(O)cc2)cc(OC)c1	28%	-5%	-29%
CCc1noc(C)c1C(=O)OCC(=O)Nc1ccc2c(c1)OCO2	0%	1%	1%
COc1ccc(C(CNC(=O)c2cc(S(=O)(=O)N3CCCC3)ccc2Cl)N2CCCC2)cc1 (stereo not drawn)	-15%	0%	-1%
O=C(CN1C(=O)NC2(CCCc3ccccc32)C1=O)N1CCN(c2cccc(C(F)(F)F)c2)CC1 (stereo not drawn)	-18%	-4%	5%
COc1ccc(NC(=O)CN(C)C(=O)C2CC(=O)N(c3cccc4ccccc34)C2)cc1 (stereo not drawn)	-2%	0%	-4%
COc1ccc(C)cc1C1=CC(=O)C[C@H](c2ccc(F)cc2)C1	-5%	16%	5%
Cc1ccc(-n2cccc2/C=C2\C(=N)N3N=C(C(C)C)SC3=NC2=O)cc1	-14%	4%	-1%
COc1ccccc1OCCn1cc(/C=N/NC(N)=S)c2ccccc21	?	-5%	11%
Fc1ccc(CCN2CCN=C2Nc2ccccc2)cc1	-26%	-15%	-10%
CC(C)C[C@@H](CN1C(=O)C(=O)NC[C@@H]1CC(C)C)NC(=O)Cc1ccccc1	-21%	23%	-28%
Cc1cccc(OCC(=O)O/N=C(\N)Cc2ccc([N+](=O)[O-])cc2)c1	-16%	-15%	0%

Sorted by length of the SMILES (highest first): some entries from above.
SMILES	2A StopGo	RE007 growth inh	SARS PLpro yeast
COC(=O)[C@]1(C)N[C@H](CN(C)C(=O)Nc2ccc(C)cc2)[C@@H]2C(=O)N(Cc3ccccc3)C(=O)[C@@H]21	-9%	19%	3%
CC(C)C[C@@H](CN1C(=O)C(=O)NC[C@@H]1CC(C)C)NC(=O)Cc1ccccc1	-21%	23%	-28%
CCn1c(SCC(=O)N(C)C2CCCCC2)nc2cc(S(N)(=O)=O)ccc21	-14%	0%	4%
COc1cc(/C=C/c2ccc(O)cc2)cc(OC)c1	28%	-5%	-29%

The listing picks up; the 3 compounds before the break are reprinted first.
SMILES	2A StopGo	RE007 growth inh	SARS PLpro yeast
Fc1ccc(CCN2CCN=C2Nc2ccccc2)cc1	-26%	-15%	-10%
CC(C)C[C@@H](CN1C(=O)C(=O)NC[C@@H]1CC(C)C)NC(=O)Cc1ccccc1	-21%	23%	-28%
Cc1cccc(OCC(=O)O/N=C(\N)Cc2ccc([N+](=O)[O-])cc2)c1	-16%	-15%	0%
CC(C)Cn1c(N)c(C(=O)CSc2nnc(-c3ccco3)n2C)c(=O)n(C)c1=O	-19%	-4%	0%
O=C(Nc1nc(-c2cccs2)cs1)c1ccc([N+](=O)[O-])o1	4%	-23%	-1%
COc1ccc([C@H]2CC(=O)C=C(c3cc4ccccc4s3)C2)cc1OC	?	-19%	2%
Cc1ccc(-c2nc(N)nc(N)n2)c(C)c1	-3%	2%	0%
O=C(O)c1cccc(-n2sc3ccccc3c2=O)c1	9%	1%	9%
C[C@H]1CN=C(N(C)C)N1CC1CCCCC1	-11%	17%	2%
O=C(CSc1ncc(C(F)(F)F)cc1Cl)N1CCNC1=O	11%	5%	-3%
CSCc1c(C(=O)Nc2ccccc2N2CCOCC2)oc2ccccc12	?	8%	-2%
COc1ccc(N2CCN(CC(O)COC(C)(C)C)CC2)cc1 (stereo not drawn)	1%	-3%	-1%
Cc1ccccc1NC(=O)Cc1nc(COC(=O)c2ccc(C(F)(F)F)cc2)cs1	0%	?	0%
O=C(NC(CC1CCCCC1)C(=O)O)c1ccccc1 (stereo not drawn)	6%	-2%	-2%
COC(=O)C1=C(c2ccc(C(C)=O)cc2)C[C@@H]2CC[C@H]1N2C(=O)NCc1ccc2c(c1)OCO2	-2%	2%	-11%
O=C(C1Cc2ccccc2CN1C(=O)c1ccco1)N1CCN(c2ccccc2)CC1 (stereo not drawn)	0%	17%	-9%
COC(=O)CSC(=S)N1CCCC(C)C1 (stereo not drawn)	-24%	9%	-2%
O=C(C1CC(=O)N(c2ccccc2F)C1)N1CCOCC1 (stereo not drawn)	7%	1%	-1%
CCCCn1c(N)c(N(C(=O)CSc2nnnn2-c2ccccc2)C2CCCC2)c(=O)[nH]c1=O	-1%	-11%	-2%
O=c1[nH]c(SCc2cccc(Cl)c2)nc2ccccc12	-17%	12%	-1%
Cc1cc(Cl)ccc1NC(=S)NC(C)(C)C	9%	0%	2%
Cn1ccc(NC(=O)c2ccc(Cl)cc2)n1	42%[activator]	4%	1%
CCCCn1nc(C(=O)NCC2COc3ccccc3O2)c2ccccc2c1=O (stereo not drawn)	0%	-1%	1%
CCOc1cc(N2CCOCC2)c(OCC)cc1NC(=O)CSc1ccccc1C(=O)O	-9%	-8%	11%
O=C(Nc1ccc(C(=O)N2CCC(O)(c3ccc(Cl)c(C(F)(F)F)c3)CC2)cc1)c1ccc(Br)o1	0%	8%	8%
Fc1ccc2cnc(-c3ccccc3)cc2c1	38%[activator]	-17%	-6%
Cc1ccc(F)c(C2=CC(=O)C[C@H](c3ccc(F)cc3)C2)c1	4%	-5%	-8%
O=C(COC(=O)C1=NN(c2ccccc2)C(=O)CC1)Nc1ccc([N+](=O)[O-])cc1C(F)(F)F	-16%	-3%	3%

(more compounds)
SMILES	2A StopGo	RE007 growth inh	SARS PLpro yeast
N#CCC(=O)Nc1ccc(C(=O)OCC(=O)c2ccc3c(c2)NC(=O)CO3)cc1	-21%	4%	-6%
Cc1ccc(Cn2ccsc2=NC(=O)CCl)cc1	?	26%	-1%
Cc1ccc(CNC(=O)c2cccc3c2C(=O)c2ccc(N4CCCCC4)cc2S3(=O)=O)cc1	24%	-1%	8%
COc1ccc(C)cc1Cn1nnc2ccccc21	4%	4%	3%
N/C(=N\NC(=O)c1ccccc1)c1cc2ccccc2oc1=O	34%[activator]	2%	-6%
CCC1(CC)N=C(c2ccccc2)C(=S)N1	-12%	4%	29%
CCOC(=O)C1CCCN(C(=O)CCc2nc3sc4c(c3c(=O)[nH]2)CCCC4)C1 (stereo not drawn)	-16%	-1%	1%
CC(=O)NC(Cc1ccc(O)cc1)C(=O)NN (stereo not drawn)	3%	3%	3%
Cc1ccc(-n2c(C)nnc2SCC(=O)N(C)c2c(N)n(Cc3ccccc3)c(=O)[nH]c2=O)cc1	-24%	-1%	-1%
C#CC(CC)(CC)NC(=O)Nc1ccccc1C(=O)OC	-9%	4%	2%
O=C(COC(=O)CN1C(=O)c2ccccc2C1=O)Nc1ccccc1[N+](=O)[O-]	-8%	-10%	1%
CN(C(=O)CSc1ncnc2sc3c(c12)CCC3)C1CCS(=O)(=O)C1 (stereo not drawn)	-24%	8%	0%
Cc1cc(NN)nc(NS(=O)(=O)c2ccc(Cl)cc2)n1	12%	-1%	0%
N#Cc1ccccc1OCC(=O)OCC(=O)NCc1ccc2c(c1)OCO2	-20%	2%	-2%
Cc1ccc(C(=O)OCC(=O)NCc2ccc3c(c2)OCO3)cc1S(=O)(=O)N1CCOCC1	-13%	-17%	-1%
COc1ccccc1-n1c(-c2cccs2)nc2ccccc2c1=O	-10%	4%	-2%
CCN(C(=O)Cn1cnc2c1c(=O)n(C)c(=O)n2C)C1CCS(=O)(=O)C1 (stereo not drawn)	-11%	17%	-3%
COc1ccc(-c2cc(C(=O)Nc3ccccc3F)on2)cc1	57%[activator]	-7%	-3%
O=S(=O)(c1ccc(Cl)nc1)N1CCOCC1	-18%	1%	2%
O=C(CCCOc1ccc(Br)cc1)Nc1nnc(C2CC2)s1	-10%	-6%	-2%
Cn1cc(SCC(=O)NCCc2ccccc2)c2ccccc21	-14%	4%	-4%
COc1ccccc1C(=O)NCCC(=O)NC1=NCCS1	-16%	-11%	9%
COc1cc(C(=O)NNC(=O)CCOc2cccc(Br)c2)cc(OC)c1OC	-8%	-5%	2%
CCOC(=O)c1c(C)[nH]c(C(=O)COC(=O)CCNS(=O)(=O)c2ccc(NC(C)=O)cc2)c1C	-6%	-4%	1%
C[C@@]12C(=O)Nc3cc(F)ccc3C(=O)N1[C@H]1c3cc(Br)ccc3OC[C@@H]1[C@@H]2c1ccccc1	?	6%	5%

(list continues)
SMILES	2A StopGo	RE007 growth inh	SARS PLpro yeast
Nc1ncnc2c1ncn2[C@@H]1O[C@H](CNC(=O)[C@@H]2C[C@H](F)CN2)[C@@H](O)[C@H]1O	-19%	4%	-5%
O=C(COC(=O)/C=C/c1ccc(Cl)cc1Cl)NCC1CCCO1 (stereo not drawn)	-5%	4%	0%
C/C(=N\NC(=S)NCc1ccccc1)c1ccc2c(c1)OCCO2	-1%	-12%	-1%
COC(=O)C1=C(c2cccc(OCc3ccccc3)c2)C[C@@H]2CC[C@H]1N2C(=O)NNCc1ccccc1	-22%	8%	3%
COc1cccc(NC(=O)c2ccccc2F)c1	56%[activator]	-25%	3%
O=C(CCS(=O)(=O)c1ccc(Cl)cc1)N1CCN(c2ccc(F)cc2)CC1	-25%	?	0%
Cc1ccc(S(=O)(=O)N2CCCN(C(=O)CNC(=O)c3cccc(C)c3)CC2)cc1	-10%	-2%	-10%
C[C@@]12C(=O)Nc3cc(F)c(F)cc3C(=O)N1[C@H]1c3cc(Cl)ccc3OC[C@@H]1[C@@H]2c1ccccc1	?	1%	1%
Cc1ccc(/C=C2\SC(=S)N(c3cccnc3)C2=O)cc1	12%	-18%	0%
COc1ccc(C)cc1NS(=O)(=O)c1ccc(Cl)nc1	12%	-1%	-20%
CCCN=C1N(CC)C[C@@H]2[C@@H]3C(=O)N(C)C(=O)[C@@H]3[C@](Cc3ccccc3)(C(=O)OC)N12	-18%	1%	9%
COc1cccc(C2=CC(=O)CC(C)(C)C2)c1	-12%	-2%	3%
CCOC(=O)C1=C(C)Nc2ccccc2N/C1=N\S(=O)(=O)c1cc(C(=O)O)ccc1Cl	-20%	20%	-1%
O=C(C1CCCN1C(=O)c1cccs1)N1CCN(S(=O)(=O)c2ccc(F)cc2)CC1 (stereo not drawn)	-19%	9%	0%
COc1ccc(S(=O)(=O)N(C)C)cc1NC(=O)COC(=O)c1nn(C)c(=O)c2ccccc12	-6%	-2%	0%
C/C(=N\n1cnnc1)c1ccc(C#N)cc1	42%[activator]	-5%	-1%
C=CCCO[C@@H]1O[C@@H](C)[C@H](O)C[C@H]1O	-16%	-3%	-5%
COc1cccc(NC(=O)[C@@H]2CCCN2S(=O)(=O)c2cccc3cccnc23)c1	-2%	-7%	7%
CC1(NC(=O)c2cc(Cl)nc3ccccc23)CCS(=O)(=O)C1 (stereo not drawn)	-16%	8%	-2%
CCCCNc1c(-c2cccc(SC3CCCCC3)c2)nc2ccc(Cl)cn12	-17%&-24%	-6%&-8%	-6%
C[C@@H]1COC(=O)[C@@H](CC(=O)OC(C)(C)C)C/C=C\C[C@H](CC(=O)NCCO)C(=O)N1	4%	15%	6%
COc1cc(C(C)=O)ccc1OC(C)C(=O)Nc1ccc(S(=O)(=O)N2CCCC2)cc1 (stereo not drawn)	-20%	-11%	0%[6.58 µM]
Cc1nn(Cc2ccccc2)c(C)c1C(=O)N1CCN(S(=O)(=O)/C=C/c2ccccc2)CC1	-9%	6%	0%

Screening data (PubChem BioAssay)
